Compound activity as filed in PubChem BioAssay.
PrP 5UTR inh – inhibition of PrP 5' UTR reporter expression; actives 0.35% (n = 340,000); inhibition, % (test concentration not listed); cell-based PrP 5' UTR mRNA reporter, plate reader;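 active means every replicate at 50% or more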;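 further: 0 = median of the neutral control wells; tested in H4 reporter cells; numbers are from one replicate; inactives centre near -14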
BJeLR lethal – MLPCN primary cell-based screen for lethality selective to Ras in HRASV12 cells; BJeLR (HRASV12) viability, CellTiter-Glo ATP luminescence, 48 h; reference of the scale not given here; inhibition, % (test concentration not listed); actives 0.17% (n = 300,000); AID 1554, 2009;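 active means replicate mean above 50%; inconclusive means above 50% but judged a plate artefact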;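 further: 50 nL library stock added to about 25 µL; numbers are from one replicate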
Autofluor counter – counter-screen for toxin protease inhibitors: compound fluorescence; compound autofluorescence counterscreen, microsphere flow cytometry; stronger effect = higher value; fluorescence intensity (test concentration not listed); actives 3.1% (n = 360,000);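 active means at least 3 SD above the mean of all compounds, about 16000 in these data; inconclusive means too few beads counted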;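 further: 100 nL of 1 mM stock went into each well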
Mtb hypoxia rep – PubChem AID 1159583; M. tuberculosis hypoxia-regulated fluorescent reporter, fluorescence; fluorescence inhibition, % (test concentration not listed); actives 0.1% (n = 300,000);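 active means 35 to 45% if threefold the growth effect, above 45% if 1.5-fold the growth effect; inactive means the rest, general growth blockers included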;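 further: wells of about 50 µL received 100 nL stock; 0% = vehicle wells and 100% = reference inhibitor wells; whole bacteria with a GFP reporter of the hypoxia response; strong numbers were not always called active; many hits fall short of the cut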
RN4220 kill – growth inhibition of S. aureus RN4220, primary screen, OD600. 16 h. inhibition, % (test concentration not listed). actives 0.33% (n = 330,000). AID 1259311, 2017;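 active means z-score of -3 or lower and OD600 up to 0.18 on both plates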;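 further: plate controls were untreated cells for no effect and reference antibiotic for full effect; stock transfer was 100 nL into about 80 µL; one replicate is shown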
ugtP null kill – growth inhibition of ugtP-null S. aureus, primary screen, RN4220 ugtP deletion, OD600. 16 h; some inactives read as strong as hits. growth inhibition, % (concentration not given with the values). actives 0.54% (n = 330,000). AID 1259309, 2017;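 active means z-score under -3 and OD600 up to 0.15 on both plates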;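 further: plate controls were untreated wells for no effect and antibiotic for full effect; wells of about 80 µL received 100 nL stock; the first replicate is given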
Mtb hypoxia rep growth – second read-out of Mtb hypoxia rep, no call of its own (marks repeat the call); growth inhibition, %; measured here: M. tuberculosis growth (absorbance);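 0% = vehicle and 100% = reference antibiotic; read after six days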
The depositor's hits bear a star; u = inconclusive; x = not tested or not shown. No enrichment for hits; 4% or so of the library scored in one or more.

SMILES | PrP 5UTR inh | BJeLR lethal | Autofluor counter | Mtb hypoxia rep | Mtb hypoxia rep growth | RN4220 kill | ugtP null kill
O=C(COC(=O)C12CC3CC(CC(O)(C3)C1)C2)N1CCN(S(=O)(=O)c2ccc(Cl)cc2)CC1 | -25 | 9 | 9909 | 2 | 7 | 1.4 | 2
COc1ccc(CN2CCN(c3ccccc3OC)CC2)cc1OC | -6 | 3 | 3038 | 20 | 3 | 6.3 | 6
CCn1c(COc2cccc(C)c2)nnc1SCC(=O)NC1CCCC1 | -4 | -6 | 5803 | 12 | 1 | 4.4 | 3
O=C1NC(=O)C2(COC3(CCCC3)OC2)S1 | 2 | -13 | 4529 | -4 | 4 | 2.0 | 2
COc1cc(OC)cc(C(=O)N/N=C/c2ccc(OC)c(COc3ccc4ccccc4c3)c2)c1 | -25 | 12 | 4341 | x | x | x | x
COc1ccc(Nc2nc(-c3cccc([N+](=O)[O-])c3)nc3ccccc23)c(OC)c1 | -9 | 3 | 2211 | 4 | 1 | 0.9 | 5
O=C(NCc1nc2ccccc2[nH]1)C1=C[C@@H](c2ccc(C(F)(F)F)cc2)C[C@@H](OCc2ccc(CO)cc2)O1 | -14 | 0 | 3597 | x | x | x | x
CC(C)CC(NC(=O)c1nc[nH]c1C(=O)N1CCC(C)CC1)C(=O)OC(C)(C)C (configuration not stated) | x | x | x | 16 | 13 | 4.2 | 0
CCCC(=O)Nc1ccc(N2CCCCC2)cc1 | -49 | -11 | 2820 | x | x | -4.6 | 0
O=C1C2C3C=CC(CC3)C2C(=O)N1N=Cc1ccco1 (configuration not stated) | x | x | x | 9 | 4 | -0.2 | 11
O=C(CSc1n[nH]c(=O)[nH]c1=O)N/N=C/c1ccccc1 | -13 | -4 | 2425 | x | x | x | x
CCn1c(SCC(=O)c2ccc(Cl)s2)nnc1-c1cccs1 | -19 | -8 | 3490 | x | x | 43 | 6
COc1cc(C(=O)N2CCc3ccccc32)cc(OC)c1OC | -8 | 7 | 3134 | 6 | 2 | 4.5 | 4
OCC[C@@H]1C[C@H](O)[C@@H](O)[C@]2(CCc3ccccc3O2)O1 | -19 | 4 | 4005 | x | x | x | x
COc1ccc(CN(C(=O)c2ccccc2OC)C2CCS(=O)(=O)C2)cc1 (configuration not stated) | -21 | 9 | 8708 | 6 | 8 | 6.4 | 0
O=C(Nc1cccn(Cc2c(Cl)cccc2Cl)c1=O)c1c(Cl)cccc1Cl | -10 | 7 | u | 17 | 1 | 1.0 | 5
CCCCCCCC(=O)Nc1cc(C(=O)NCc2ccc(C)cc2)ccc1N1CCC2(CC1)CC(c1cccc(Br)c1)=NO2 | -22 | -9 | 3629 | 9 | 13 | 0.5 | 7
Cc1c(C(=O)N2CC[C@@H](N3CCC(O)CC3)[C@H](O)C2)[nH]c2ccc(Cl)cc12 | -30 | 6 | 8174 | 6 | 6 | 0.6 | -5
CC(C)NS(=O)(=O)c1ccc(CCC(=O)NCc2ccc3c(c2)OCO3)cc1 | 8 | -1 | 9021 | -3 | -8 | -2.7 | -1
O=C(NCCNc1ccc([N+](=O)[O-])cc1C(F)(F)F)c1cccc(F)c1 | -36 | 2 | 2123 | -1 | 10 | 11 | -6
CCCCCC1C(C(=O)OCC)C(=O)NC1(C(=O)OCC)C(=O)OCC (configuration not stated) | -20 | x | 3474 | -4 | 4 | -3.6 | -7
Cc1nnc(SCC(=O)N2CC(=O)Nc3ccccc32)n1Cc1ccccc1 | -19 | -1 | 3667 | x | x | -1.4 | 8
Cc1ccc(S(=O)(=O)NCc2ccc3c(c2)cc(C)n3C)cc1 | -47 | -8 | 1200 | -2 | 6 | 3.2 | 1
O=C(CN1CCN(S(=O)(=O)c2ccccc2)CC1)Nc1ccccc1C(=O)NC1CC1 | -20 | x | 5234 | 10 | -3 | 3.7 | 2
Cc1cc(C)c(C)c(OCC(=O)ON=C(N)c2ccccn2)c1 | x | x | x | 9 | 16 | -4.6 | -8

The list goes on; the last four above are carried over.
SMILES | PrP 5UTR inh | BJeLR lethal | Autofluor counter | Mtb hypoxia rep | Mtb hypoxia rep growth | RN4220 kill | ugtP null kill
Cc1nnc(SCC(=O)N2CC(=O)Nc3ccccc32)n1Cc1ccccc1 | -19 | -1 | 3667 | x | x | -1.4 | 8
Cc1ccc(S(=O)(=O)NCc2ccc3c(c2)cc(C)n3C)cc1 | -47 | -8 | 1200 | -2 | 6 | 3.2 | 1
O=C(CN1CCN(S(=O)(=O)c2ccccc2)CC1)Nc1ccccc1C(=O)NC1CC1 | -20 | x | 5234 | 10 | -3 | 3.7 | 2
Cc1cc(C)c(C)c(OCC(=O)ON=C(N)c2ccccn2)c1 | x | x | x | 9 | 16 | -4.6 | -8
COc1ccc(S(=O)(=O)N2CCOC2CNC(=O)C(=O)NCCc2ccc(OC)c(OC)c2)cc1 (configuration not stated) | -2 | 2 | 2334 | -17 | -6 | -1.8 | -4
Cc1c(Cc2ccccc2)sc(NC(=O)C(C)(C)C)c1C(N)=O | 1 | -7 | 3632 | 0 | 2 | 2.3 | 10
CC(NC(=O)CN1C(=O)NC2(CCc3ccccc32)C1=O)c1ccccc1 (configuration not stated) | -18 | x | 8022 | 8 | -6 | 1.4 | 2
CC1(c2nnc(-c3cccc(Cl)c3)o2)CC(c2ccccc2)=NO1 (configuration not stated) | -23 | -7 | 2915 | 25 | 12 | 4.4 | 10
O=c1oc2ccccc2cc1C1=Nn2c(nnc2-c2cccnc2)SC1 | -2 | 7 | 3808 | x | x | 4.5 | 6
Cc1ccc(C(C)NC(=O)c2ccncc2)c(C)c1 (configuration not stated) | -18 | 21 | 2918 | -2 | -5 | 3.3 | 6
Cc1cc(NC(=O)COC(=O)C2CC(=O)N(c3ccc(C)c(Cl)c3)C2)no1 (configuration not stated) | -8 | 8 | 5661 | 2 | 7 | -0.3 | 6
COc1ccc(NC(=O)c2oc3ccccc3c2NC(=O)c2ccco2)cc1 | -5 | 12 | 21689* | 13 | 5 | 6.3 | -11
O=C(NCCO)/C(=C\c1ccco1)NC(=O)c1cccs1 | -7 | 5 | 3989 | -4 | 2 | 5.6 | 4
Cc1ccc(C(=O)O)cc1N1C(=O)CCCC1=O | -18 | 7 | 3295 | 13 | 6 | 9.8 | -6
Cc1cccc(C)c1OCC(=O)Nn1c(COc2ccccc2)nc2ccccc2c1=O | -7 | -5 | 9145 | 10 | -3 | 14 | -11
CCOc1cccc(/C=C2/NC(=O)N(CC(=O)Nc3cccc(C)c3)C2=O)c1O | -7 | 6 | 3643 | -7 | 1 | -3.4 | -9
CC(C)C[C@@]12C(=O)N(c3cccc(Br)c3)C(=O)N1[C@H](c1ccc(F)cc1)[C@@H]1C(=O)N(C3CCCCC3)C(=O)[C@@H]12 | -25 | -8 | 3747 | x | x | x | x
CCOC(=O)c1sc(NC(=O)CCSC)nc1C | -25 | -6 | 9138 | 2 | 12 | 3.8 | 6
CN(C#N)c1nc(N2CCOCC2)nc(N2CCOCC2)n1 | 0 | -10 | 2433 | 6 | 8 | 4.3 | -4
Br/C(C=NNc1ccc2nncn2n1)=C\c1ccccc1 | x | x | x | 9 | 0 | -1.5 | -15
FC(F)(F)c1ccc(CN2C[C@@H]3C(c4ccc(C(F)(F)F)cc4)C4(c5cccnc5)CC3(C4)[C@H]2c2ccccc2)cc1 (some centres not stated) | -22 | 4 | 4519 | x | x | x | x
CCOc1ccccc1N1CCN(Cc2c(C)n(C)n(-c3ccccc3)c2=O)CC1 | -24 | 3 | 4145 | 11 | 6 | 4.2 | 0
COc1cc(S(=O)(=O)N2CCN=C2c2ccccc2)c(OC)cc1Cl | -26 | -1 | 5902 | 0 | 12 | 5.7 | -1
CCCC(C)n1[nH]c(=O)cc1N (configuration not stated) | -9 | 5 | 2706 | x | x | -0.1 | 1
CC(=O)c1cccc(OCC(=O)N(C)CC(=O)Nc2ccc(F)cc2)c1 | x | -3 | x | -7 | 15 | 4.5 | -6
N#Cc1c[nH]n2c(=O)c3c(nc12)CCCC3 | x | 6 | x | 7 | 4 | 2.3 | 5
O=C(CCCN1C(=O)/C(=C/c2ccccc2Cl)SC1=S)NCCCN1CCOCC1 | 17 | 8 | 6410 | 5 | -13 | 5.3 | 19
Cc1ccc(C)c(Nc2cc(C)nc3ncnn23)c1 | -9 | -8 | 4248 | 13 | 2 | 6.3 | 7
Cc1cc(NC(=O)CSc2nccn2-c2ccc(Cl)cc2)no1 | -18 | 9 | 2372 | x | x | -0.7 | -7
SMILES | PrP 5UTR inh | BJeLR lethal | Autofluor counter | Mtb hypoxia rep | Mtb hypoxia rep growth | RN4220 kill | ugtP null kill
CC1(C)Cc2c(cnn2-c2ccc(F)cc2)C(NC(=O)c2cnccn2)C1 (configuration not stated) | -13 | 10 | 6658 | 4 | 6 | 3.9 | 7
Cc1ccccc1C(O)c1cccnc1 (configuration not stated) | -23 | 3 | 2458 | -7 | 6 | 4.5 | 4
C/[N+]([O-])=C/c1c(OCc2ccc(Cl)cc2Cl)ccc2ccccc12 | -26 | 0 | 3899 | 0 | 0 | 4.4 | 8
CN(NC(=O)COc1ccccc1)C1=NS(=O)(=O)c2ccccc21 | -10 | 1 | 3138 | 13 | 4 | 5.4 | -2
COc1ccc(N2CCCC2)c(NC(=O)COc2ccccc2)c1 | -15 | 0 | 5551 | 3 | 12 | 3.5 | 38
O=C(O)CN(Cc1ccccc1)S(=O)(=O)c1ccc2c(c1)OCCO2 | -15 | -4 | 4504 | 6 | 4 | 4.6 | 8
O=C(CCC(=O)c1cccs1)NNC(=O)c1ccccc1O | -13 | 1 | 5352 | 1 | -1 | 1.8 | -6
FC(F)Oc1ccc(/C=N/NC(=S)Nc2cc(C(F)(F)F)ccc2Cl)cc1 | -11 | -11 | 2160 | x | x | x | x
C=C1CCN(C(CC(C)C)C(=O)NCCCc2ccccc2)S(=O)(=O)c2ccccc21 (configuration not stated) | x | x | x | 12 | 14 | 1.5 | 6
COc1ccc(CCNC(=O)c2nn(C)c3c2CS(=O)(=O)c2ccccc2-3)c(OC)c1 | 3 | 4 | 5595 | 2 | 5 | -0.5 | 0
Cc1cccc(-n2nc(C(=O)Nc3ccccc3)n3c(=O)cc(-c4ccccc4)nc23)c1 | -28 | 15 | 3282 | 5 | 5 | 22 | 10
O=C(NC1CC2CCCC(C1)N2S(=O)(=O)c1ccccc1)c1ccccc1 (configuration not stated) | 1 | -14 | 8860 | -4 | 0 | -1.5 | 3
COc1cccc2c1C(=O)c1c(O)c3c(c(O)c1C2=O)C[C@@](O)(C(=O)CO)C[C@@H]3O[C@H]1C[C@H](N)[C@H](O)[C@H](C)O1 | 89* | 75* | 5053 | x | x | x | x
O=C(CSc1nnc(-c2ccncc2)o1)NCc1ccccc1 | 8 | 10 | 2827 | 5 | 6 | 4.7 | 1
O=C(O)/C=C/c1cn(Cc2ccccc2)nc1-c1ccc(Cl)cc1 | -13 | -6 | 4376 | 4 | 9 | 2.9 | 3
COc1ccc(C(CNS(=O)(=O)c2ccc(C)cc2)N2CCN(C)CC2)cc1 (configuration not stated) | -4 | 8 | 5382 | -11 | -2 | 3.4 | 1
CCn1c(COc2cccc3cccnc23)nnc1SCC(=O)OC | -22 | -3 | 2238 | 5 | 6 | 3.8 | 2
Cc1ccccc1OCc1nc2ccccc2c(=O)n1N=Cc1cn[nH]c1-c1ccc(Br)cc1 | x | x | x | 2 | 0 | 19 | 2
N#Cc1c2c(c(-c3ccccc3)[nH]c1=O)CCCC2 | 0 | 0 | 11327 | 10 | 5 | 8.7 | 3
CCOC(=O)c1ccc2c(c1)nc(-c1ccc(F)cc1)c1nccn12 | -8 | 6 | 3186 | 3 | 9 | 0.7 | 6
CCn1c(SCC(=O)Nc2ccccc2OC)nc(O)cc1=O | -18 | -6 | 3469 | -12 | 5 | -2.3 | 1
Cc1ccc(S(=O)(=O)NCc2ccccc2)cc1C(=O)N1CC(C)CC(C)C1 (configuration not stated) | -9 | 10 | 6432 | x | x | x | x
O=C(/C=C/c1cccc([N+](=O)[O-])c1)c1ccco1 | -11 | 3 | 3454 | x | x | x | x
C/C(=N\NC(=O)CN1CCN(c2ccc(F)cc2)CC1)c1ccco1 | -16 | -8 | 3334 | x | x | x | x
Cc1onc(-c2ccccc2)c1C(=O)Nc1ccc2c(c1)OCCO2 | -7 | 1 | 10266 | 3 | 5 | 6.8 | 1
